Source: PubChem BioAssay
Anaer choline gr = inhibitors of anaerobic choline-dependent gram-negative bacterial growth | actives 0.2% (n = 55,000) | calls only | Gram-negative bacterium anaerobic choline minimal medium, absorbance growth; stronger effect = lower value; many inactives read as strong as hits in the columns shown;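 active = growth z-score on choline under -2 at 7 or 20 h with little or no fall on glycerol, limits in tiers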;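 also: stock transfer was 300 nL into about 50 µL; the organism is E. coli; final concentration not given here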
Anaer choline gr early = second read-out of Anaer choline gr, no call of its own (marks repeat the call); z-score; measured here: choline growth z-score, timepoint 1;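 score of optical density at 7 h as mean of two plates; lower means less growth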
* hit, by the source's call; i = inactive; & = joins results of further samples.

| Anaer choline gr | Anaer choline gr early | Compound |
| --- | --- | --- |
| i | 0.47 | Cc1ccc(-n2cc(C(=O)N3CCCCC3)nn2)cc1C |
| i | 0.73 | O=C(CN1C(=O)COc2ccc(S(=O)(=O)N3CCOCC3)cc21)NCCc1c[nH]c2ccccc12 |
| i | 0.43 | O=C(NC1CCCC1)c1ccc2ccnc(N3CCN(c4ccccc4)CC3)c2c1 |
| i | -0.1 | CC12CN3CC(C)(CN(C1)C3c1ccc(O)c(O)c1)C2=O (stereo unspecified) |
| i | -0.74 | CC1Oc2ccc(-c3csc(NC(=O)C(C)(C)C)n3)cc2NC1=O (stereo unspecified) |
| i | -0.2 | CCc1c(C)nc2ncnn2c1NC1CCCC1 |
| i | 0.11 | Cc1nnc(NC(=O)CSc2nnc3[nH]c(=O)cc(C)n23)s1 |
| i | 1.2 | CCCOc1c(C(=O)OC)sc2ccc(NC(=O)C3CC(=O)N(CCc4ccc(C)cc4)C3)cc12 (stereo unspecified) |
| i | -0.05 | O=C(Nc1sc2c(c1C(=O)NCC1CCCO1)CCC2)c1cc(-c2ccccc2)on1 (stereo unspecified) |
| i | -0.51 | O=S(=O)(c1ccc(F)cc1F)N1CC(OCc2ccc(Cl)cc2)C1 |
| i | -0.33 | Cc1sc(-c2noc(C3CC3)n2)cc1S(=O)(=O)N1CCC2(CC1)OCCO2 |
| i | -0.62 | Cc1ccc(-n2nnnc2-c2ccccc2)cc1 |
| i | -0.08 | COCCCN1C(=O)c2cc3oc(C)cc3n2CC1(C)C(=O)NC1CCCCC1 (stereo unspecified) |
| i | 0.25 | Cc1nn2c3c(nnc2c1-c1ccccc1)C(=O)CC(c1ccccc1)C3 (stereo unspecified) |
| i | 0.41 | OCCN1C[C@H](O)[C@@H](O)[C@H](O)[C@H]1CO |

Whole records as entered above. Screens in order: Anaer choline gr, Anaer choline gr early
Cc1sc(-c2noc(C3CC3)n2)cc1S(=O)(=O)N1CCC2(CC1)OCCO2 as listed: i, -0.33
CCCOc1c(C(=O)OC)sc2ccc(NC(=O)C3CC(=O)N(CCc4ccc(C)cc4)C3)cc12 (stereo unspecified) as listed: i, 1.2
Cc1nn2c3c(nnc2c1-c1ccccc1)C(=O)CC(c1ccccc1)C3 (stereo unspecified) as listed: i, 0.25
O=C(Nc1sc2c(c1C(=O)NCC1CCCO1)CCC2)c1cc(-c2ccccc2)on1 (stereo unspecified) as listed: i, -0.05
Cc1ccc(-n2cc(C(=O)N3CCCCC3)nn2)cc1C as listed: i, 0.47

5 entries out of the list, sorted by SMILES length, smallest number first.
| Anaer choline gr | Anaer choline gr early | Compound |
| --- | --- | --- |
| i | -0.2 | CCc1c(C)nc2ncnn2c1NC1CCCC1 |
| i | 0.47 | Cc1ccc(-n2cc(C(=O)N3CCCCC3)nn2)cc1C |
| i | 0.41 | OCCN1C[C@H](O)[C@@H](O)[C@H](O)[C@H]1CO |
| i | -0.08 | COCCCN1C(=O)c2cc3oc(C)cc3n2CC1(C)C(=O)NC1CCCCC1 (stereo unspecified) |
| i | -0.33 | Cc1sc(-c2noc(C3CC3)n2)cc1S(=O)(=O)N1CCC2(CC1)OCCO2 |

Next part
| Anaer choline gr | Anaer choline gr early | Compound |
| --- | --- | --- |
| i | 0.79 | Cc1[nH]c(C)c(S(=O)(=O)N2CCC(C(=O)N(C(C)C)C3CCCCC3)CC2)c1C(=O)N1CCCCC1 |
| i | 0.52 | CCc1ccccc1-n1c(-c2ccc(Cl)cc2)cn2c3c(=O)n(C)c(=O)n(C)c3nc12 |
| i | 0.42 | O=C(COc1ccccc1F)Nc1cccc(OCc2cc(=O)n3c4c(sc3n2)CCCC4)c1 |
| i | 0.89 | CC(C)n1c(N2CCN(C(=O)C3CCCCC3)CC2)cc(=O)n(C(C)C)c1=O |
| i | -0.23 | O=C(NCc1ccccc1)C1CCN(c2nn3c(=O)c4c(nc3s2)CCCC4)CC1 |
| i | -0.93 | c1csc(-c2nc(Cn3ccnc3)no2)c1 |
| i | -0.22 | CCn1nccc1NC(=O)COc1ccccc1Cl |
| i | -0.2 | CCN(Cc1cc2ccccc2[nH]c1=O)C(=O)c1cccc(Cl)c1 |
| i | 0.03 | CCCc1nn2c(=O)cc(CN3CCCc4ccccc43)nc2s1 |
| i | -0.78 | CCCCOc1ccc(C(=O)Nc2cc(C)nn2-c2ncnc3c2cnn3-c2ccccc2)cc1 |
| i | -0.93 | CC1CCCCC12NCCN=C2NC1CCCCCC1 (stereo unspecified) |
| i | -0.61 | COc1ccccc1N1CCN(CCCNC(=O)Nc2c[nH]c3ccc(C)cc3c2=O)CC1 |
| i | 1.1 | CCOc1cc(-c2ccccc2)nc2ccc(C(=O)Nc3cc(OC)ccc3OC)cc12 |
| i | 0.83 | CC(O)c1nc2ccccc2n1C/C=C/c1ccccc1 (stereo unspecified) |
| i | 0.09 | CCn1c(C2CCN(S(=O)(=O)c3ccc4c(c3)CC(=O)N4C)C2)nc2cccnc21 (stereo unspecified) |
| i | 0.36 | Cc1ccc(S(=O)(=O)N2CCN(Cc3nc4cccnc4n3-c3ccccc3)CC2)cc1Cl |
| i | 0.37 | O=C(NCc1ccc(Cl)cc1)c1n[nH]nc1Nc1cccc(Cl)c1 |
| i | -0.03 | CC1CCC(NC(=O)C2(C)Cn3c(nc4ccccc43)C(=O)N2CCN2CCOCC2)CC1 (stereo unspecified) |
| i | -0.54 | CCn1cc(-c2nc(-c3cccc(Br)c3)no2)c(=O)c2cc(F)c(N3CCOCC3)cc21 |
| i | -0.44 | COc1cccc(-c2nn3c(-c4cc(C(C)C)[nH]n4)nnc3s2)c1OC |
| i | -0.58 | CCCC(=O)Nc1ccc(SCc2cc(=O)n3c(ncn3C(C)C)n2)cc1 |
| i | 0.67 | Cc1nc(-c2cc(S(=O)(=O)NCc3ccc(F)cc3)c(C)s2)sc1C |
| i | 0.06 | O=C(O)c1cc(N2CCN(CC(=O)N3CCCC3)CC2)nc2ccc(NC(=O)C3CCCC3)cc12 |
| i | 0.41 | O=C(c1ccccc1)c1cnc2cc3c(cc2c1S(=O)(=O)c1ccccc1)OCCO3 |
| i | 0.4 | CCOc1nc2c(c(C)nn2-c2ccc(C)cc2)c(C)c1CCC(=O)Nc1ccc(F)cc1 |
| i | 0.56 | COc1ccc(NC(=O)CSCc2nc3cccnc3n2C2CCCCC2)cc1 |
| i | -0.65 | O=C(c1nnc(-c2cc(S(=O)(=O)N3CCCC3)c[nH]2)o1)N1CCOCC1 |
| i | 0.01 | COCCCNC(=O)c1ccc2c(c1)N(Cc1ccccc1)C(=O)CS2=O (stereo unspecified) |
| i | -0.19 | Cc1ccc(CNC(=O)c2nc(N3CCOCC3)c3ccccc3n2)cc1 |
| i | 0.85 | CCc1nc(-c2csc(S(=O)(=O)N3CCC(C(=O)NCC4CCCO4)CC3)c2)no1 (stereo unspecified) |
| i | 0.16 | Cc1ccc2oc(N3CCN(C(=O)c4ccc(-c5noc(C6CC6)n5)cc4)CC3)nc2n1 |
| i | 1.4 | COc1ccc(NC(=O)Cn2c(=O)oc3cc(S(=O)(=O)N4CCC(C)CC4)ccc32)c(OC)c1 |
| i | -1.3 | Cc1cc(Sc2ccccc2NC(=O)Nc2ccc(Br)cc2)n2ncnc2n1 |
| i | -0.15 | O=C(CCc1nc(CS(=O)(=O)c2ccc(F)cc2)no1)Nc1ccc(Br)cc1F |
| i | -0.1 | CCOc1ccccc1CN1CCCC1c1cc(C(C)C)on1 (stereo unspecified) |
| i | 0.26&0.16&-0.34 | Cc1c(O)cccc1C(=O)N[C@@H](CSc1ccccc1)[C@H](O)CN1C[C@H]2CCCC[C@H]2C[C@H]1C(=O)NC(C)(C)C |
| i | 0.44 | Cc1cccc(C2c3cccn3-c3sc4c(c3CN2C(=O)c2cccnc2)CCCC4)c1 (stereo unspecified) |
| i | 0.05 | Cc1[nH]c(C)c(S(=O)(=O)N2CCCCC2)c1-c1nnc(C2CCC2)o1 |
| i | 0.42 | CCN(C(=O)c1ccccc1-c1ocnc1C(=O)N1CCN(c2ccccn2)CC1)c1ccccc1 |
| i | 0.3 | CCCCCn1cnc2scc(-c3ccccc3)c2c1=O |
| i | 1.8 | Oc1cccc(-c2nc3cnc(Br)cn3c2Nc2ccc3c(c2)OCO3)c1 |
| i | 1.4 | COc1ccc(-c2cc3c(SCC(=O)Nc4nccs4)nccn3n2)cc1 |
| i | 0.83 | Cc1noc2c1C(c1ccccc1F)C1=C(CC(c3ccc(Cl)cc3)CC1=O)N2 (stereo unspecified) |
| i | -1.2 | COc1ccc2c(c1)CCc1c-2n[nH]c1-c1nc(-c2ccc(Cl)cc2)no1 |
| i | 3.9 | Fc1ccc(CSc2ncnc3nc[nH]c23)cc1 |
| i | 1.3 | CN(Cc1ccccc1)c1ccc(-c2nc(-c3ccc(F)cc3)no2)nn1 |
| i | -1.1 | c1ccc(-c2noc(CSc3nccn3-c3ccccc3)n2)cc1 |
| i | 0.06 | CCC(=O)N1CCc2cc(N3CC(C(=O)NCC4CCCO4)CC3=O)ccc21 (stereo unspecified) |
| i | -0.42 | O=C(Nc1ccc2c(c1)OCCO2)N1CCCC1c1ccc(Cl)cc1 (stereo unspecified) |
| i | -0.17 | Cc1cc2c(cc1C)NC1(CCCCCC1)C(=NCc1cccc(F)c1)N2 |
| i | 0.66 | CCC(C)[C@@H](CO[C@@H](Cc1ccccc1)C(=O)N[C@@H](CCS(C)(=O)=O)C(=O)OC(C)C)NC[C@@H](N)CS (stereo partly specified) |
| i | 0.54 | CC1(C(=O)NC2CCCCC2)Cn2c(c(-n3cccc3)c3ccccc32)C(=O)N1CC1CCCO1 (stereo unspecified) |
| i | -0.39 | Nc1ccc(N2C(=O)c3ccccc3C2=O)c(Cl)c1 |
| i | 0.07 | CCOC(=O)CNC(=O)N1CCCC1c1cc(CC)no1 (stereo unspecified) |
| i | 0.54 | O=c1[nH]c(SCc2ccccc2F)nc2c(-c3ccccc3)c[nH]c12 |
| i | -0.5 | CCCCc1nc2c3ccccc3n(CC(=O)N3CCN(c4ccccc4F)CC3)c(=O)n2n1 |
| i | 0.12 | Cc1ccc(CNS(=O)(=O)c2c(C)c(-c3nnc(C4CCC4)o3)n(C)c2C)o1 |
| i | -0.89 | COCCNc1ncccc1-c1nc(-c2ccc(OC)cc2)no1 |
| i | 0.17 | COc1ccc(-n2c(CN3CCN(C(=O)Nc4ccc5c(c4)OCO5)CC3)nc3cccnc32)cc1 |
| i | 0.74 | O=C(NC1CC1)C1CCN(c2nc3ccsc3c(=O)n2-c2ccccc2)CC1 |

The list goes on:
| Anaer choline gr | Anaer choline gr early | Compound |
| --- | --- | --- |
| i | 0.29 | COC(=O)c1sc2ncccc2c1NC(=O)c1cccc(C)c1 |
| i | -0.3 | CC(C)NS(=O)(=O)c1ccc(N2C(=O)C(C)CS2(=O)=O)cc1 (stereo unspecified) |
| i | 1.7 | Cc1cccc(NC(c2cccc(F)c2)c2c(NC(=O)c3ccccc3)sc(C)c2C)n1 (stereo unspecified) |
| i | -0.13 | Cn1c(=O)n(CC(=O)O)c(=O)c2cnc(-c3ccccc3)nc21 |
| i | 1.2 | Cc1ccc(NC(=O)C2CCCN(S(=O)(=O)c3cc(-c4noc(C)n4)cs3)C2)nc1 (stereo unspecified) |
| i | -0.09 | CC(C)NC(=O)N1CCC(N2CCN(Cc3cccc(F)c3)C(=O)C2=O)CC1 |
| i | -1.1 | COCCCNC(=O)c1cc2c(n(-c3ccc(F)cc3)c1=O)CCCC2=O |
| i | -0.09 | CC(C)c1cc(C2CCCN2C(=O)c2cc(C3CC3)on2)on1 (stereo unspecified) |
| i | 0.46 | CC(C)CCn1c(=O)c2ccccc2n2c(=S)[nH]nc12 |
| i | -0.1 | Cc1nn(-c2ccccc2)c2c1N(CCCC(=O)NCc1cccnc1)C(=O)CS2 |
| i | -0.47 | Cc1c(N2CCC(C(=O)NCCC3=CCCCC3)CC2)c(=O)n(C)c(=O)n1C |
| i | -1 | COc1ccc(-c2ccc(SCc3nc(-c4cccc(Br)c4)no3)nn2)cc1OC |
| i | -0.27 | Cc1ccc(-c2noc(C3CC3)n2)cc1S(=O)(=O)NC(C)C(=O)NC1CCCCC1 (stereo unspecified) |
| i | 0.11 | Cc1cccc(N2CCN(C(=O)c3cccc(-n4nnc5cccnc54)c3C)CC2C)c1 (stereo unspecified) |
| i | 0.25 | Cc1csc(-c2csc(S(=O)(=O)N3CCC(C)CC3)c2)n1 |
| i | 0.08 | Cc1cc(C)c(NC(=O)Cn2c(=O)cc(C(=O)NCc3ccccc3)c3ccccc32)c(C)c1 |
| i | -1.6 | O=C(NCCCN1CCc2ccccc2C1)c1cccc(C2CCCN(C(=O)Nc3ccccc3)C2)c1 (stereo unspecified) |
| i | -0.95 | Cc1sc(-c2cc(C(F)(F)F)on2)cc1S(=O)(=O)N1CCOCC1 |
| i | -0.97 | COc1ccc(S(=O)(=O)c2c(C)cc(C)n(CC(=O)Nc3cc(OC)ccc3OC)c2=O)cc1 |
| i | -0.19 | O=S(=O)(c1ccccc1)N1CCCC1c1ccc(Cl)cc1 (stereo unspecified) |
| i | 0.09 | O=C(NCc1ccccc1Cl)C1CCN(c2nc3ccccc3o2)CC1 |
| i | -0.67 | COc1ccc(C2C=C(C)Nc3nc(N)nn32)cc1 (stereo unspecified) |
| i | 0.72 | COc1ccccc1CNC(=O)C1(C)Cn2c(cc3ccsc32)C(=O)N1CCc1ccc(Cl)cc1 (stereo unspecified) |
| i | 0.76 | Cc1ccc(CN2CCC(CNC(=O)c3cc(C)nc4c3c(=O)n(C)c(=O)n4C)C2)cc1 (stereo unspecified) |
| i | -0.45 | Cc1ccc(CN2C(=O)c3ccc(-c4ccccc4)n3CC2(C)C(=O)NC2CCCC2)cc1 (stereo unspecified) |
| i | 4.2 | CCOc1ccc(NC(=O)CSc2nnc(C(C)N3C(=O)COc4ccccc43)n2C)cc1 (stereo unspecified) |
| i | -0.74 | CN1C(=O)c2cc(C(=O)N3CCCC3)nn2CC1(C)C(=O)NC1CCCC1 (stereo unspecified) |
| i | 1.1 | CCC(C)Nc1oc(-c2ccc(S(=O)(=O)N3CCCCC3)cc2)nc1C#N (stereo unspecified) |

This is a subset; rates above refer to the full screens.
